Screens: PubChem BioAssay, several laboratories
A1 inh – caspase 3/7 activation in MEF A1-2A-BIM cells, primary screen, A1 inhibitor project, cell-based, luminescence, HTS; AID 2462, 2010; hit rate 0.066% among 330,000; caspase activation, % (no concentration beside the values); Caspase-Glo 3/7 luminescence, 3 h; percent of clofoctol response, vehicle zero;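 active means over half of replicate activation scores above 10%, or exactly half above 10 with the replicate mean above 10; inconclusive means replicate mean below 10 yet half the replicates above 10; inactive means over half of replicates below 10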;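 further: wells of about 30 µL received 50 nL stock; many hits fall short of the cut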
Calb FLC – C. albicans growth inhibition with fluconazole, primary screen, CaCi-2 strain, Alamar Blue fluorescence; growth inhibition, % (test concentration not listed); C. albicans CaCi-2 (fluconazole-resistant clinical isolate) + fluconazole, 48 h; hit rate 0.57% among 300,000;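 active means most replicates above 75%; inconclusive means exactly half above 75%; inactive means most below 75%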;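 further: all wells also contain fluconazole at 8 µg/ml as a sub-toxic cotreatment; 0% = median of DMSO wells and 100% = median of geldanamycin control wells; wells of about 8 µL received 7.5 nL stock; the first replicate is given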
MLL AF4-AF9 inh – inhibitors of AF4 peptide binding to AF9, primary screen, biochemical, AlphaScreen, biotin-AF4 peptide, FLAG-AF9, single point; Protein AF-9 (Homo sapiens), P42568; inhibition, % at 10 µM; hit rate 0.47% among 350,000; AID 651704, 2012;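 active means every replicate reaching a set inhibition limit, whatever the replicate mean, cut at about 25% in these data; inconclusive means mean inhibition reaches that limit but some replicates miss it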;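 further: 0% = plate neutral control median and 100% = total signal loss; the record names both 10 and 1 µM as test concentration; the first replicate is given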
Target sequence (P42568 whole entry, looked up): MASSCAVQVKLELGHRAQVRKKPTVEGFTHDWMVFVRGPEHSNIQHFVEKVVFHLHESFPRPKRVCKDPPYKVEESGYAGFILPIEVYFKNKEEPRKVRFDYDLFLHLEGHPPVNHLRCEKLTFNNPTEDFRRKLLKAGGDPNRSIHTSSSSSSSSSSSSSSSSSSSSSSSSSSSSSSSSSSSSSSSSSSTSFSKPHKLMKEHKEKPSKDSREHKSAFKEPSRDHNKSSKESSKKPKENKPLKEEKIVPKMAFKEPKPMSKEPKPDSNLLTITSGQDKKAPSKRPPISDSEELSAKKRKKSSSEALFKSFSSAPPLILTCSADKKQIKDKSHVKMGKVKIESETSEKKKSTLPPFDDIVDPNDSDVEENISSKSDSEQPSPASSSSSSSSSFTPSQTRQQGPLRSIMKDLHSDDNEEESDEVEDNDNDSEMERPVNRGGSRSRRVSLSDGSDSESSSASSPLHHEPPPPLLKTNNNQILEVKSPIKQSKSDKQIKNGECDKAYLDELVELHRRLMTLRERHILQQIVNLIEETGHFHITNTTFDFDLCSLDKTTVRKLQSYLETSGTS
RanGTP-Impb inh – inhibitors of RanGTP-importin-beta interaction, primary screen, biochemical, FRET, CFP-Ran, YFP-importin-beta, homogeneous; cell-free CFP-Ran/YFP-importin-beta FRET ratio; inhibition, % (no concentration beside the values); hit rate 1.1% among 300,000; AID 2216, 2009;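 active means most replicates above 15%; inconclusive means exactly half above 15%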;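 further: 0% = DMSO wells and 100% = Ran loaded with GDP instead of GTP; wells of about 40 µL received 100 nL stock; the first replicate is given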
Beta cell apopt – inhibitors of cytokine-induced beta cell apoptosis, primary screen, luminescence; INS-1E cytokine-induced death, ATP luminescence, 48 h; percent of positive-control rescue, neutral wells zero; protection from apoptosis, % (concentration not given with the values); hit rate 0.8% among 300,000; AID 435005, 2010;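 active means all replicates at 75% or more, or half of them and the mean; inconclusive means half reach 75% but not the mean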;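 further: 0% = cytokine-treated negative control wells and 100% = positive control rescue; higher means more ATP so stronger rescue from cytokine killing; wells of about 40 µL received 100 nL stock; the first replicate is given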
LANA-H2A inh – blockers of LANA interaction with H2A/H2B – biochemical, FP readout, HTS, primary screen; Protein LANA1 (Human herpesvirus 8 type P (isolate GK18)), Q9QR71; cell-free LANA-H2A/H2B peptide, fluorescence polarization; inhibition, % (concentration not given with the values); hit rate 0.6% among 320,000; in the data active means inhibition mostly above about 10%, no sharp cut-off; inactive means mostly below about 6.7%;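 further: stock transfer was 7.5 nL into about 10 µL; 0% = median of vehicle wells and 100% = median of positive control wells; one replicate is shown; the record names a cut of 25% in any replicate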
T cruzi inh – inhibitors of intracellular T. cruzi growth, primary screen, luminescence, NIH3T3 host cells | T. cruzi beta-gal in NIH3T3, 90 h | inhibition, % (concentration not given with the values) | hit rate 1.4% among 300,000 | AID 1885, 2009;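 active means mean inhibition across valid replicates above about 55%, limit read from the data; inconclusive means mean below that limit but half or more replicates reach it; inactive means mean below it, under half of replicates reach it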;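 further: signal also drops with host cell toxicity which is not excluded here; 0% = plate median of DMSO wells and 100% = zero luminescence signal; higher percent means less beta-gal luminescence so fewer parasites; stock transfer was 50 nL into about 50 µL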
Vif A3G – inhibitors of Vif binding to APOBEC3G peptide, primary screen, biochemical, TR-FRET, GST-Vif 1-94, biotin-A3G peptide, dose response retest (AID 1117319); TR-FRET GST-Vif / biotin-A3G peptide binding; higher % means a stronger effect; test concentration not given here; strong numbers were not always called active; one-dose inhibition, %; IC50 in µM for titrated hits; hit rate 0.57% among 260,000;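 active means above the screen mean plus three standard deviations and confirmed in dose response; inconclusive means results disagree or hit not tested in dose response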;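 further: Vif residues 1-94 fused to GST binding biotinylated APOBEC3G peptide 110-148; 0% = full assay without inhibitor and 100% = GST in place of GST-Vif; retest series ran down from 100 µM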
* marks the source's active call; other numbers are inactive results; ? = inconclusive; . = no result given.

SMILES	A1 inh	Calb FLC	MLL AF4-AF9 inh	RanGTP-Impb inh	Beta cell apopt	LANA-H2A inh	T cruzi inh	Vif A3G
CCCCN(CC)CCNC(=O)c1cn(C)c(=O)c2c1c1ccccc1n2C	0.9	-5.3	-4.1	1.1	-4.8	0.2	4.8	-6.8%
CC(C)NC(=S)NC(=O)/C=C/c1ccc(F)cc1	0.8	-10.7	1.0	2.6	-11.4	1.9	-5.1	.
CCc1ccc(-c2nc(CS(=O)CC(=O)O)c(C)o2)cc1 (stereo not drawn)	0.3	-9.6	-1.0	3.7	-1.4	1.4	-5.4	7.3%
COCCn1c(SCC(=O)Nc2cc(Cl)ccc2OC)nc2c(c1=O)SC(C)C2 (stereo not drawn)	0.1	4.4	8.8	1.3	-3.5	2.2	-3.0	7.3%
COc1cc(Br)c(C2C(C#N)=C(N)Oc3n[nH]c(-c4cccnc4)c32)cc1OC (stereo not drawn)	1.2	5.6	2.8	3.3	4.6	4.2	-14.4	1.6%
CN(C)/C(CN1CCN(C=O)CC1)=C1\N=C(c2ccccc2)OC1=O	1.5	1.2	.	-2.1	3.7	-5.2	-8.0	-0.4%
COc1ccc(CCC(=O)Nc2c(C)n(C)n(-c3ccccc3)c2=O)cc1	0.1	-19.3	-1.3	0.7	0.1	2.3	-16.5	5.6%
O=C1CNC(=S)N1CCCn1ccnc1	0.4	-7.1	-23.2	3.5	-4.5	-2.7	-6.8	-0.1%
O=c1[nH]c(C2CCN(S(=O)(=O)c3ccc4c(c3)OCCO4)CC2)nc2c1nnn2Cc1ccc(F)cc1	1.8	7.5	-1.0	-0.7	.	1.7	5.6	.
COCc1c(C(=O)OC/C(O)=C(\C#N)c2nc3ccccc3[nH]2)oc2ccccc12	0.9	36.1	-1.0	1.5	6.5	-1.0	-10.7	1.4%
CCCCSc1nc(C(=O)O)cc(=O)[nH]1	0.5	-2.0	-55.3	1.5	-4.9	3.2	-4.0	0.9%
CCN(CC)CCCN1C=C2C(=O)C(C)(OC(=O)CCc3ccccc3)C(=O)C=C2C=C1c1ccc(C#N)cc1 (stereo not drawn)	-0.6	14.7	.	0.4	-2.7	-0.1	-1.3	.
CCOC(=O)N1CCN(CC(O)COc2cc(C)cc(C)c2)CC1 (stereo not drawn)	1.4	-12.8	-0.4	7.3	-4.6	-5.1	6.8	7.0%
O=C(COC(=O)c1ccccc1SCC(=O)N1CCCC1)NC1CCS(=O)(=O)C1 (stereo not drawn)	0.3	-4.8	0.6	.	-3.5	2.2	-4.4	-2.3%
Cc1cc(C)cc(NC(=O)Cn2nnc3ccccc3c2=O)c1	-0.2	-27.7	-1.3	-1.7	-20.5	-2.1	0.3	3.0%
CCN(CC)S(=O)(=O)c1cc(C(=O)Nc2cccnc2Cl)ccc1Cl	-0.5	-14.1	-1.4	4.0	-2.2	-0.4	4.3	4.1%
CC(C)c1nnc(NC(=O)CCCC(=O)O)s1	-0.3	-10.4	.	6.0	-3.0	-4.2	-5.0	-1.1%
CC1(C)Cc2c(sc3nc(C4CC4)n(N)c(=O)c23)CO1	-0.5	-4.3	8.5	1.7	-1.1	-4.3	7.5	?
COC(=O)c1ccccc1-c1ccc(/C=N/NC(=O)c2cc3ccccc3o2)o1	0.1	13.2	.	0.0	-4.6	-3.9	16.3	.
O=C(O)C1=NN(c2ccccc2)C(=O)C1	-0.3	4.8	-2.6	0.6	-3.8	0.3	-7.8	13.7%
CCn1ncc(Br)c1C(=O)Nc1ccc(Cl)cn1	-1.2	0.6	.	2.1	0.2	1.8	5.1	-5.5%
Cc1cc(C(=O)N2CCCC(N3CCN(c4ccccc4C)CC3)C2)nc(C)n1 (stereo not drawn)	0.4	-1.0	1.9	2.1	-1.6	0.7	-1.5	.
CCN1CCN(S(=O)(=O)c2ccc(S(=O)(=O)N(CC)Cc3ccccc3)cc2)CC1	-0.3	-12.1	6.6	0.5	-9.0	0.8	13.6	8.6%
CC(C)NC(=O)c1ccc(COc2cc(Cl)ccc2Cl)o1	-0.4	-5.2	-4.4	0.4	-4.8	-5.3	0.9	4.9%
CNC(=O)c1cc(C(=O)c2ccc(C(F)(F)F)cc2)c[nH]1	0.5	2.0	-2.2	-0.3	.	3.7	-4.3	-16.8%
N=c1c(S(=O)(=O)c2ccc(Cl)cc2)cc2c(=O)n3ccccc3nc2n1Cc1cccnc1	-1.0	-2.4	.	32.9*	11.1	6.0	11.2	.
Cc1ccc(-n2c(C)cc(/C=C3/SC(=O)N(CC(=O)N4CCOCC4)C3=O)c2C)nc1	0.2	-4.4	.	-1.6	-4.3	2.2	-15.6	-12.0%
COC(=O)Nc1ccc2c(c1)N(C(=O)CCCl)c1ccccc1S2	0.8	26.1	.	2.0	-6.7	0.9	44.3	-5.3%
CCSc1nnc(NC(=O)CN2C(=O)C3CC=CCC3C2=O)s1 (stereo not drawn)	-0.3	0.4	-8.5	1.8	5.6	2.2	-11.8	-7.9%
S=c1[nH]nc(C2CC2)n1Cc1ccccc1	0.9	35.4	-3.3	0.0	-15.6	5.5	0.4	.
CCCCN(CC)CCCNC(=S)Nc1ccc2nc3n(c(=O)c2c1)CCCCC3	-0.2	-1.0	8.7	5.0	5.7	1.5	56.0*	?
Cc1ccc2oc(=O)c3cc(C(=O)NCCN4CCN(C)CC4)sc3c2c1	-0.8	6.3	2.2	26.5*	4.4	-2.8	-8.6	-3.6%
COc1ccc(C(=O)Nc2cc3c(cc2N2CCCCC2)n(C)c(=O)n3C)cc1OC	-0.3	17.2	-3.9	0.0	-3.1	-0.9	14.4	.
COc1ccc(NC(=O)CSc2nc(C)cs2)c([N+](=O)[O-])c1	-0.7	.	6.0	.	-1.4	1.6	.	.
Cc1ccc(S(=O)(=O)N2CCOCC2)cc1NC(=O)CSc1nnc(NC2CC2)s1	0.3	.	2.4	.	-0.9	.	.	0.4%
CC(C)[C@H](NC(=O)c1cc2cc(Cl)ccc2n1C)C(=O)N1CCC(C(=O)O)CC1	1.9	5.1	1.9	1.2	-1.9	3.2	2.0	-4.5%
CC1(C)CC[C@]2(C(=O)O[C@@H]3OC(CO)[C@@H](O)[C@H](O)[C@H]3O)CC[C@]3(C)C(=CCC4[C@@]5(C)CC[C@H](O[C@@H]6OC(C(=O)O)[C@@H](O)[C@H](O)[C@H]6O)C(C)(C)C5CC[C@]43C)[C@@H]2C1 (stereo partly drawn)	0.2	.	-0.6	.	-1.4	.	.	-5.2%
Cc1nc(COC(=O)c2c(C)nn(-c3ccccc3)c2C)cs1	0.5	1.0	.	6.8	-3.1	-5.1	24.6	-0.1%
CCCCOc1ccc(C(=O)NCC(=O)NC2CCN(Cc3ccccc3)CC2)cc1	0.1	-1.1	3.4	-1.8	4.1	1.5	17.5	.
Cc1sc2ncn(CC(=O)NCCCC(=O)N3CCN(c4ccccn4)CC3)c(=O)c2c1C	1.2	-9.4	.	0.8	3.5	-3.1	1.7	20.9%
CCC(C)(C)NC(=O)C(c1ccc(OC)cc1)N(C(=O)CCC(=O)Nc1cc(C)on1)C1CC1 (stereo not drawn)	-0.1	-2.6	-6.8	6.0	-0.7	-4.4	4.3	-0.2%
COc1ccc(NC(=O)c2sc3nc(C)nc(N4CCOCC4)c3c2C)c(OC)c1	-0.3	-8.5	-3.1	-0.2	7.3	1.2	-11.5	-81.2%
CCOC(=O)c1nnsc1NC(C)=O	1.0	-2.8	.	1.5	1.9	-2.8	5.9	-0.3%
CCOC(=O)CC(=O)CSc1ncnc2c1oc1ccccc12	-0.1	-9.1	.	4.3	4.8	1.0	-1.5	-61.2%
CC(C)(C)OC(=O)N[C@@H](COCc1ccccc1)C(=O)N[C@@H](CO)[C@H](O)[C@@H]1C[C@@H]1C(=O)NC1CC1	0.5	-5.7	0.7	1.9	-10.7	6.8	-16.4	.
CCOc1ccc(C(=O)Nc2cccc(-c3nc4ccccc4[nH]3)c2C)cc1[N+](=O)[O-]	0.0	-3.3	1.2	-3.4	10.3	1.1	16.9	?
Cc1onc(-c2c(F)cccc2Cl)c1C(=O)NCCCN1CCOCC1	0.2	2.2	-0.3	-0.6	-1.8	-2.4	-10.9	1.9%
O=C(COC(=O)CCc1ccccc1)Nc1ncc(Cl)cc1Cl	-0.8	-0.9	.	1.6	-0.6	10.1	-2.0	2.3%
CN(C)CCNc1ncnc2c1sc1nc(N3CCCC3)c3c(c12)CC(C)(C)OC3	-1.1	22.6	11.2	1.4	.	2.7	37.4	-12.5%
Nc1c2c(nc3ccccc13)CCC2	-0.4	-9.4	.	3.2	4.2	1.4	9.9	67.0%
CCOc1ccc(C(=O)NCC(=O)OCCN2C(=O)c3ccccc3C2=O)cc1OCC	1.7	.	-1.3	.	3.1	-0.4	.	8.3%
CCc1c(C)sc(NC(=O)Cc2ccccc2C)c1C(=O)N1CCOCC1	-0.3	32.9	-6.0	-1.9	-0.9	1.7	-7.7	-3.3%
COCCN(C(=O)COC(=O)c1ccc2c(c1)OCCO2)c1c(N)n(Cc2ccccc2)c(=O)[nH]c1=O	0.2	-7.4	0.3	6.6	-1.8	-0.7	-7.9	2.5%
CCCCN(C)C(=O)C(Cc1ccccc1)NS(=O)(=O)c1ccc2c(c1)c(=O)n(C)c(=O)n2C (stereo not drawn)	0.1	-4.4	0.0	0.1	-2.4	0.2	3.4	-8.6%
COc1cccc(N(C(=O)Cn2nnc(-c3ccc(Cl)cc3)n2)C(C(=O)NCC2CCCO2)c2ccc(C)cc2)c1 (stereo not drawn)	-0.4	5.4	-0.4	-3.3	-1.3	2.1	1.9	.
CCn1cc(C(=O)N2CCCC2)c(=O)c2cc(S(=O)(=O)N3CCOCC3)ccc21	-0.4	-0.9	.	.	-4.0	1.0	-2.5	0.9%
COc1cc2c(=O)n(Cc3ccccc3)c(=O)n(CC(=O)NCc3ccco3)c2cc1OC	.	-7.6	.	-1.8	.	.	6.8	-4.2%
COc1ccc(S(=O)(=O)Nc2c(O)ccc3ccccc23)cc1OC	0.5	-0.4	4.1	1.8	-22.3	0.0	5.7	.
CC(Nc1ccccc1CO)C(=O)Nc1cccc(Cl)c1Cl (stereo not drawn)	0.2	-20.5	-0.7	0.8	-3.7	-2.4	7.2	-2.0%
CC(=O)Nc1cccc(-c2nnc3n2CC(C)S3)c1 (stereo not drawn)	0.6	6.6	5.6	1.7	-4.9	0.0	0.3	2.3%

(list continues)
SMILES	A1 inh	Calb FLC	MLL AF4-AF9 inh	RanGTP-Impb inh	Beta cell apopt	LANA-H2A inh	T cruzi inh	Vif A3G
O=C(CC(c1ccccc1)c1ccccc1)Nc1ncn[nH]1	-0.4	-11.9	.	-2.3	-0.6	0.1	0.2	-1.8%
OC(c1cccc(OCc2ccccc2)c1)c1nnc(-c2ccccc2)o1 (stereo not drawn)	0.0	-6.7	.	0.7	50.1	1.8	-8.1	2.4%
CCCCCCCCS(=O)C1CS(=O)(=O)CC1O (stereo not drawn)	2.0	9.7	-1.8	-4.0	4.7	-1.0	-4.5	7.0%
COc1ccc(OC)c(NC(=O)C2C3C=CC(C3)C2C(=O)NCc2cccnc2)c1 (stereo not drawn)	0.3	26.4	-1.9	1.0	-2.5	-5.8	-37.1	5.7%
